LT uptake inh = blocks cellular internalization of anthrax lethal toxin; Cells, anthrax lethal toxin internalization, FRET ratio (460/530); Potency, µM (doses to about 40 µM), for the others: top-dose activity change, negative = inhibition, hits mostly inhibitors; hit rate 0.67% among 70,000; AID 912; active = well fitted falling ratio curve with the 530 nm signal flat; inconclusive = other ratio curves, or a change in one channel alone; inactive = flat curves in the ratio and both channels; the % refers to the ratio; also: % is scaled to controls: 0 for no effect and ±100 for the full control effect; nearly all actives have a fitted effect of over 50% in size; tested in ME-180 cells; beta-lactamase reporter
SmPrx2 inh = inhibitors of Schistosoma mansoni peroxiredoxin 2. S. mansoni Prx2 activity coupled to TGR/GSH (TGR is thioredoxin glutathione reductase), NADPH fluorescence loss, qHTS; some inactives read as strong as hits. Potency, µM. hit rate 0.07% among 65,000. AID 448; active means full or partial inhibition curve with a strong effect at the top dose; inconclusive means weaker partial or single-point curve; inactive means no accepted curve; also: series up to 57 µM; many of its hits are not listed in these tables
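Coupled assay in which S. mansoni TGR passes NADPH reducing equivalents via glutathione to Prx2, which reduces H2O2. Compounds were preincubated 15 min at room temperature with 25 nM TGR/50 nM Prx2 mix. Kinetic NADPH fluorescence loss (ex 365/em 450 nm) was monitored.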
The depositor's hits bear a star; ? = inconclusive; · = no result given; [ ] = dose if it differs, or a comment. Potency is read from the fitted curve at half-maximal effect. Some of the compounds tested (hit frequency here may not be typical).

| smiles | LT uptake inh | SmPrx2 inh |
| --- | --- | --- |
| Cc1ccc(-c2nnc(N3CCN(c4ccccn4)CC3)c3ccccc23)cc1 | 11% | >57 |
| CCc1ccc(C2C(C(C)=O)=C(C(=O)OC)Nc3nnnn32)cc1 (stereo not given) | ? | >57 |
| CCOC(OCC)P(=O)(O)CCCN | ? | >57 |
| CCC(=O)Nc1sc2c(c1C(N)=O)CCC2 | 6% | >57 |
| Cc1n[nH]c(C)c1S(=O)(=O)N1CCCC(C(=O)NCC2COc3ccccc3O2)C1 (stereo not given) | 0% | >57 |
| Cc1cc(NC(=O)CSc2nnc(COc3ccccc3)o2)no1 | 9% | >57 |
| O=C(COc1ccc(Br)cc1)OCc1nnc(-c2ccccc2)o1 | 14% | >57 |
| O=C(c1ccco1)N1CCN(Cc2ccc(Cl)cc2)CC1 | -15% | · |
| O=C(N1CCCCC1)N1CCN(C(=O)N(c2ccccc2)c2ccccc2)CC1 | -4% | >57 |
| CN1CCN(c2ccc(NC(=O)c3ccccc3Br)cc2)CC1 | 22% | >57 |
| COc1ccc(C(=O)Nc2c(N)nc(SCC(=O)N3CCCCCC3)[nH]c2=O)cc1OC | 8% | >57 |
| Cc1noc(C)c1COC(=O)CCc1nc2ccccc2s1 | 3% | >57 |
| O=C(O)CCC(=O)c1cccc2ccccc12 | -2% | >57 |
| Cc1ccc(N(CC(=O)NC2CCC(C)CC2)S(=O)(=O)c2cccnc2)cc1 (stereo not given) | ? | >57 |
| O=C(NCc1ccccn1)C1CCCN(S(=O)(=O)c2ccc(Br)cc2)C1 (stereo not given) | -8% | >57 |
| CCn1c(CNc2cccc(Cl)c2)nnc1SCc1ccccc1 | -26% | >57 |
| Cc1ccc(S(=O)(=O)N2CCCC2C(=O)Oc2ccccc2)cc1 (stereo not given) | 8% | >57 |
| CCOc1cc(NC(=O)c2ccco2)c(OCC)cc1NC(=O)COc1ccccc1 | -15% | >57 |
| Cc1cc(S(=O)(=O)N2CCCC2)c(C)s1 | 15% | >57 |
| Cc1nc2cc(NC(=O)N3CC4(C)CC3CC(C)(C)C4)ccc2n1C (stereo not given) | -7% | >57 |
| CCCCn1c(CNC(C)=O)nc2ccccc21 | -7% | >57 |
| Cc1sc(NC(=O)c2ccco2)c(CN2CCCCC2)c1C | 2% | >57 |
| Clc1ccc(-c2nnc(-c3ccc(Br)o3)o2)c(Cl)c1 | -14% | · |
| Cc1cc(C)c(S(=O)(=O)NCC2CCC(C(=O)NCCCN3CCOCC3)CC2)c(C)c1 (stereo not given) | 24% | >57 |
| O=C(Cc1ccccc1)Nc1c(C(=O)N2CCOCC2)cnn1-c1ccccc1 | 21% | · |
| Cc1ccc(-c2nc(CSCC(=O)N3CCCC3)c(C)o2)cc1 | 7% | >57 |
| CNC(=O)CCn1nc(-c2ccc(Cl)cc2)c2ccccc2c1=O | -15% | >57 |
| O=S(=O)(/N=C(/Nc1cc(N2CCOCC2)ncn1)c1ccc(F)cc1)c1ccccc1 | ? | >57 |
| COc1cc(C2C(C(=O)c3ccco3)=C(O)C(=O)N2c2cc(C)on2)cc(Br)c1O (stereo not given) | -13% | >57 |
| O=C(CC1SC(=Nc2ccccc2)N(CCCO)C1=O)Nc1ccc(Cl)cc1 (stereo not given) | ? | >57 |
| COc1ccc(C)cc1NC(=O)CN(c1ccccc1F)S(C)(=O)=O | 0% | · |
| COCCn1cnc2c1c(=O)n(CC(=O)c1ccc3c(c1)OCCO3)c(=O)n2Cc1ccccc1 | -3% | >57 |
| COC(=O)c1ccc(N2C(=O)CC(N(C)Cc3ccccc3)C2=O)cc1 (stereo not given) | -3% | >57 |
| COc1ccc(C2=CSC3=NCCN23)cc1F | ? | >57 |
| COC(=O)c1ccc(NC(=O)C2CC(=O)N(c3cc(C)ccc3C)C2)cc1 (stereo not given) | ? | >57 |
| O=C(c1csnn1)N1CCC[C@@]2(CCN(c3ncccn3)C2)C1 | -11% | >57 |
| COc1cc(NC(=O)Cn2nnc(-c3ccccc3N)n2)cc(OC)c1 | -14% | >57 |
| O=C(CCCNS(=O)(=O)c1cccc2nsnc12)NCc1ccccc1 | -2% | >57 |
| Oc1ccccc1-c1nc(NCC2CCCO2)c2ccccc2n1 (stereo not given) | ? | >57 |
| COc1cc(N/C(=N/S(=O)(=O)c2ccccc2)c2ccccc2)ncn1 | -12% | >57 |
| CCOC(=O)c1c(NC(=O)c2nn(CC)cc2Br)c(C#N)nn1-c1ccccc1 | -30% | >57 |
| Cn1c(SCc2ccccc2Cl)nnc1-c1cnccn1 | 10% | >57 |
| CCOCCn1c(CCCO)nc2ccccc21 | -4% | >57 |
| Cc1cc(C)nc(N(C#N)S(=O)(=O)c2ccccc2)n1 | -1% | >57 |
| COc1ccc(C2CC(C(F)(F)F)n3nc(C(=O)NCc4c(C)nn(C)c4C)c(Cl)c3N2)cc1 (stereo not given) | -29% | >57 |
| O=S(=O)(c1ccccc1)N1CCC2(CCCN(Cc3nccs3)C2)CC1 | ? | >57 |
| O=C(c1ccc2c(c1)OCO2)N1CCNc2ccccc2C1 | 7% | >57 |
| COCCNc1ccnc(-c2ccccc2C)n1 | -7% | >57 |
| CCn1ncc(C(=O)Nc2ccc(S(=O)(=O)N3CCCC3)cc2)c1C | 3% | >57 |
| COCCCn1c(-c2ccc(OC)cc2)nc2nc3ccccc3nc21 | 3% | >57 |
| COc1cccc(-n2c(SC)nnc2-c2cnccn2)c1 | -12% | >57 |
| CCN(CC)CCOc1nc(C)nc2c1oc1ccccc12 | -13% | >57 |
| CC(=O)[C@@H]1[C@@H]2C(=O)N(c3ccc(F)c(Cl)c3)C(=O)[C@@H]2C2c3ccccc3C=CN21 (stereo not given in full) | -13% | >57 |
| CCOC(=O)C1CCCN(C(=O)c2cc3c(=O)n4cccc(C)c4nc3n2C)C1 (stereo not given) | 21% | >57 |
| O=c1cc(Cn2ccnc2)c2cc3c(cc2o1)CCC3 | ? | >57 |
| COc1cccc(-c2nc(N3CCNCC3)c3ccccc3n2)c1 | -7% | >57 |

Next section
| smiles | LT uptake inh | SmPrx2 inh |
| --- | --- | --- |
| COc1ccc(-n2c(=O)c3ccccc3n(CC(=O)NC3CCCC3)c2=O)cc1 | 4% | >57 |
| Cc1ccccc1NC(=O)c1c(F)c(F)c(F)c(F)c1F | 1% | >57 |
| O=C(CSc1nnc2scc(-c3ccccc3)n12)N1CCN(Cc2ccccc2)CC1 | -15% | >57 |
| COc1ccccc1-c1nnc(SCCN2CCOCC2)n1-c1ccc(C)cc1 | 3% | >57 |
| CN(C)C(=O)CSc1nnc(CCNC(=O)OC(C)(C)C)o1 | -3% | >57 |
| O=C(O)C(F)(F)S(=O)(=O)O | 4% | >57 |
| Cc1noc(C)c1COC(=O)c1cccnc1SCC(=O)Nc1ccc2c(c1)OCO2 | -20% | >57 |
| COc1ccc(NC(=O)c2oc3cc(C)c(C)cc3c2C)c(OC)c1 | -1% | >57 |
| CC(C)CCn1nnnc1C(c1ccc(F)cc1)N1CCN(C(=O)c2ccco2)CC1 (stereo not given) | ? | >57 |
| Cc1ccccc1NC(=O)c1ccccc1 | 0% | >57 |
| CCc1c(C)nc2ncnn2c1N1CCCC(C(=O)NCCc2ccccc2)C1 (stereo not given) | -14% | >57 |
| Cc1ccc(NC(=[OH+])c2cc3ccccc3cc2O)c(C)c1.Cc1ccc(NC(=[OH+])c2cc3ccccc3cc2O)c(C)c1.[Ni] | ? | >57 |
| COc1cccc(C2=CC(c3cc(OC)ccc3OC)n3nnnc3N2)c1 (stereo not given) | -4% | >57 |
| O=c1c2ccccc2n2cnnc2n1-c1ccccc1 | 17% | >57 |
| COC(=O)c1sc(NC(=O)c2ccco2)nc1C | 3% | >57 |
| O=C(CSc1oc(-c2ccc(F)cc2)nc1S(=O)(=O)c1ccccc1)NCC1CCCO1 (stereo not given) | ? | >57 |
| Cc1occc1C(=O)Nc1c(F)cc(F)cc1Br | 4% | >57 |
| CCOC(=O)c1ccc(CNC(=O)C2CCCCC2C(=O)OCC(F)(F)F)o1 (stereo not given) | -17% | >57 |
| CNC/C(Cl)=N/S(=O)(=O)c1ccc(C)cc1 | -7%[8 µM] | · |
| CCOC(=O)c1[nH]c(C)c(C(=O)N2CCC3(CC2)OCCO3)c1C | 9% | >57 |
| CCc1nc(C)cc(N)c1OCc1ccccc1 | -6% | >57 |
| COC(=O)c1cc2sccc2n1Cc1nc(-c2ccc(OC)cc2)oc1C | -10% | >57 |
| Fc1ccc2c(c1)[C@H]1OCC[C@H]1[C@@H](c1ccco1)N2 | · | >57 |
| CNC(=O)CN1C(=O)c2ccccc2S1(=O)=O | -7% | >57 |
| O=C(Nc1nc(-c2cccnc2)cs1)c1ccc(S(=O)(=O)N2CCOCC2)cc1 | -4% | >57 |
| O=C(Nc1ccc(S(=O)(=O)N2CCc3ccccc3C2)cc1)C1CCCO1 (stereo not given) | -3% | >57 |
| CCCCC(=O)NC1(C(F)(F)F)C(=O)Nc2c1c(=O)[nH]c(=O)n2Cc1ccco1 (stereo not given) | ? | >57 |
| O=C(C1CCC(C(=O)N2CCc3ccccc32)CC1)N1CCc2ccccc21 (stereo not given) | -3% | >57 |
| CCC(C)n1nccc1NC(=O)C(C)OC(=O)c1cc2ccccc2[nH]1 (stereo not given) | -14% | >57 |
| CCCCn1c(NC(=O)c2ccccc2)c(C#N)c2nc3ccccc3nc21 | ? | >57 |
| OC(COc1ccc2ccccc2c1Cl)CN1CCOCC1 (stereo not given) | 3% | >57 |
| Clc1ccc2c(N3CCC(CCC4CCN(c5ncnc6cc(Cl)ccc56)CC4)CC3)ncnc2c1 | -1%[8 µM] | >57 |
| O=S(=O)(Nc1cccnc1)c1ccc(C2CCCCC2)cc1 | -2% | >57 |
| CCOC(=O)N1CCC(N2C(=O)c3ccc(C(=O)NC4CCCCCC4)cc3C2=O)CC1 | 8% | >57 |
| COC(=O)c1sc(NC(=O)Cc2cccs2)nc1C | -7% | >57 |
| CC(C)(C)N(Cc1ccccc1)C(=O)CSc1nnc(CNc2ccc(F)cc2)o1 | -5% | >57 |
| S=C(c1ccc(Cl)cc1)N1CCOCC1 | 5% | · |
| Cc1ccc(-n2c(Cc3cccs3)nnc2SCC(=O)OC(C)C)cc1 | ? | >57 |
| Cc1cccc([N+](=O)[O-])c1C(=O)O | -11% | · |
| COCCN1Cc2cccc(C(=O)N3CCN(c4cc(C)ccc4C)CC3)c2C1=O | 9% | >57 |

Record cards, as listed above.
CC(C)CCn1nnnc1C(c1ccc(F)cc1)N1CCN(C(=O)c2ccco2)CC1 (stereo not given) is listed with LT uptake inh: ?; SmPrx2 inh: >57
O=S(=O)(/N=C(/Nc1cc(N2CCOCC2)ncn1)c1ccc(F)cc1)c1ccccc1 is listed with LT uptake inh: ?; SmPrx2 inh: >57
Cc1n[nH]c(C)c1S(=O)(=O)N1CCCC(C(=O)NCC2COc3ccccc3O2)C1 (stereo not given) is listed with LT uptake inh: 0%; SmPrx2 inh: >57

Other structures.
| smiles | LT uptake inh | SmPrx2 inh |
| --- | --- | --- |
| O=C(O)C1CSC2(CCN(Cc3ccccc3)CC2)N1 (stereo not given) | 6% | >57 |
| O=C(Nc1ccc2c(c1)CCC2)C1CCN(c2c3c(nc4ncnn24)CCC3)CC1 | -16% | >57 |
| COc1cccc(-c2nc(CS(=O)(=O)CC(=O)N3CCN(C4CCCCC4)CC3)c(C)o2)c1 | 2% | >57 |
| CC(C)(C)c1cc(C(=O)O)c(CN2CCCCC2)o1 | -2% | >57 |
| CCOc1cc(S(=O)(=O)NCC2OCCc3ccccc32)c(OCC)cc1-n1cnnn1 (stereo not given) | -26% | >57 |
| O=C(Nc1ccc2nc(-c3cccs3)[nH]c2c1)c1ccco1 | 9% | >57 |
| C=CCn1c(SCc2cc(=O)n3ccsc3n2)nnc1C1CCCCC1 | -11% | >57 |
| Cc1ccc(S(=O)(=O)C(C#N)c2nc3ccccc3nc2N2CCC(C)CC2)cc1 (stereo not given) | -2% | >57 |
| Cc1cc(-n2c(SCCC#N)nnc2-c2cccnc2)ccc1Cl | -7% | >57 |
| COC(=O)c1cccc(NC(=O)Cn2nnc3ccccc32)c1 | -7% | >57 |
| O=C(O)CCCC(=O)Nc1nc(-c2ccc(F)cc2)cs1 | -10% | >57 |
| CCc1nnc(NC(=O)C(C)Sc2ccccc2)s1 (stereo not given) | 3% | >57 |
| COCc1c(C(N)=O)nnn1-c1nonc1N | -5% | >57 |
| CCn1c(SCC(=O)Nc2ccccc2-c2ccccc2)nnc1-c1ccoc1C | -8% | >57 |
| CCNC(=O)COC(=O)c1ccc(S(=O)(=O)N2CCCCCC2)cc1 | -1% | >57 |
| CNc1ncnc2c1ncn2[C@H]1C[C@@H](OP(=O)(O)O)[C@H](COP(=O)(O)O)O1 | 6% | >57 |
| CN(C)S(=O)(=O)N1CCN(C(=O)N(c2ccccc2)c2ccccc2)CC1 | -2% | >57 |
| COc1ccc2c(c1)CCc1c(C(=O)N3CCCC3)noc1-2 | 10% | >57 |
| Cc1ccc(Oc2nsnc2N2CCOCC2)cc1 | -13% | >57 |
| COc1cc(CNC(=O)OCC(C)C)cc(OC)c1OC | -3% | · |
| CS(=O)(=O)N1CCCC(C(=O)NCCc2ccccc2)C1 (stereo not given) | 0% | >57 |
| Cc1cc(C)n(-c2nc3ccccc3c(=O)n2OCCOc2ccccc2)n1 | -21% | >57 |
| O=c1oc2c(CN3CCCCCC3)c(O)ccc2cc1-c1nc2ccccc2[nH]1 | ? | >57 |

Screening results from PubChem.
